From PubChem BioAssay
VDR inh: blocks the human vitamin D receptor; P11473; VDR-SRC2-3 peptide fluorescence polarization, 2 h; Potency, µM, for the others: max response, negative = inhibition, actives largely listed as inhibitors; 0.93% of 400,000 active; AID 504847; active = well fitted inhibition curve with a large enough effect; inconclusive = small, poorly fitted or top-dose-only effect, or another doubt; inactive = no such curve, though single readings can be large or run the other way; also: series mostly up to about 120 µM
Target sequence (P11473 whole entry, looked up): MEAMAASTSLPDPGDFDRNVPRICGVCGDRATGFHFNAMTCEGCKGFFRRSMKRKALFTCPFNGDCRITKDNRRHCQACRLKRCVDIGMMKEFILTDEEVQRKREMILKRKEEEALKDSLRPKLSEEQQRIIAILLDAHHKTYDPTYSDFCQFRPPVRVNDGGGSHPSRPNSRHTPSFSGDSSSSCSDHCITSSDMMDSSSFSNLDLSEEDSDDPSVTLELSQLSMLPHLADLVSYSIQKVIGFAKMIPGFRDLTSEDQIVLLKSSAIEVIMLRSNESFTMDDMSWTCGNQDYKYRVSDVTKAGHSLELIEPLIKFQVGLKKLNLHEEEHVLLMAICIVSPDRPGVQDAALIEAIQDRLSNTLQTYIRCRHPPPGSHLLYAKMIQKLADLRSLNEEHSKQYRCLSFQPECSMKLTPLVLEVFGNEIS
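Compounds are added to VDR with labelled SRC2-3 coactivator peptide and held 2 h at room temperature. Inhibition of the VDR–peptide interaction is then read as a change in fluorescence polarization.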
* hit, by the source's call; ? = inconclusive; & = joins results of further samples; [ ] = remark or other dose. % is scaled to controls: 0 for no effect and ±100 for the full control effect; potency is read from the fitted curve at half-maximal effect. An excerpt; the hit share may differ from the screen's.

SMILES,VDR inh
O=C(CSc1oc(-c2ccco2)nc1S(=O)(=O)c1ccc(Cl)cc1)c1ccc(Cl)cc1,-8%
Cc1nnc(NC(=O)CSc2nnc(CC(=O)Nc3ccccc3C)n2C)s1,6%
COc1cc(OC)cc(C(=O)N/N=C\c2ccoc2)c1,36%[activator]
CCN(CC(=O)NC1CC1)S(=O)(=O)c1ccc(OC)cc1,9%
CCC(C)c1ccc(N(CC(=O)NC(C)(C)C)C(=O)CNC(=O)c2cccs2)cc1 (stereo not drawn),-8%
Cc1ccc(-n2nc(CO)c(C(=O)NCc3cccs3)n2)cc1C,-14%
COc1ccc(N(CC(=O)NC2CCCCCC2)S(=O)(=O)c2ccc(C)cc2)cc1OC,-1%
COC(=O)c1ccccc1NC(=O)c1nn(C)c2c1COc1ccccc1-2,1%
CCCC(C(=O)NC1CCCC1)N(CC1CCCO1)C(=O)CNS(=O)(=O)c1ccccc1 (stereo not drawn),-14%
CCCCCCn1c(N2CCC(C(N)=O)CC2)nc2c1c(=O)n(C)c(=O)n2C,?
Cc1cc(C)c(C(N)=O)c(NCCc2ccccc2)n1,-9%
CCc1c(-c2ccccc2)nc2ccccc2c1C(=O)NCCc1ccccc1,10%
COc1ccc(CNC(=O)COc2cccnc2[N+](=O)[O-])cc1OC,7%
COC(=O)c1ccc(NC(=O)CSCc2ccccc2)cc1,2%
O=C1/C(=C\c2ccc(Br)cc2)SC(=S)N1NS(=O)(=O)c1ccccc1,-1%
CCn1c(NC(=O)c2ccc(C)cc2)c2ccccc2nc1=O,-4%

Some of these compounds in order of their number in VDR inh, high to low.
SMILES,VDR inh
CCc1c(-c2ccccc2)nc2ccccc2c1C(=O)NCCc1ccccc1,10%
O=C1/C(=C\c2ccc(Br)cc2)SC(=S)N1NS(=O)(=O)c1ccccc1,-1%
Cc1ccc(-n2nc(CO)c(C(=O)NCc3cccs3)n2)cc1C,-14%

Later entries:
SMILES,VDR inh
COc1ccc(NC(=O)CC2C(=O)N(c3ccc(OC)cc3)C(=O)N2CCC2=CCCCC2)cc1 (stereo not drawn),6%
Cc1ccc(C2CC(=O)N(c3ccc(F)cc3)C3=C2C(=O)CCC3)cc1 (stereo not drawn),17%
Cc1ccc2nc(N3CCN(c4ccccc4F)CC3)c3nnnn3c2c1,-8%
CCOC(=O)c1ccccc1Cc1nc2ccccc2c(=O)[nH]1,-8%
CN(Cc1ccccc1Cl)C(=O)CCNC(=O)c1ccco1,-15%
CCOc1ccc(NC(=O)CN(C)C(=O)C2CCN(C(=O)Nc3ccccc3)CC2)cc1OCC,5%
COC(=O)Nc1nnc(CCc2ccccc2)s1,5%
Cc1ccc(C)c(N2CCN(C(=O)CN(C)S(=O)(=O)c3cnc[nH]3)CC2)c1,-14%

In another format: entries from further up
> CCOc1ccc(NC(=O)CN(C)C(=O)C2CCN(C(=O)Nc3ccccc3)CC2)cc1OCC
  VDR inh: 5%
> Cc1ccc(C2CC(=O)N(c3ccc(F)cc3)C3=C2C(=O)CCC3)cc1 (stereo not drawn)
  VDR inh: 17%
> COc1cc(OC)cc(C(=O)N/N=C\c2ccoc2)c1
  VDR inh: 36%[activator]
> Cc1ccc(C)c(N2CCN(C(=O)CN(C)S(=O)(=O)c3cnc[nH]3)CC2)c1
  VDR inh: -14%

Next section.
SMILES,VDR inh
Cc1cc(Cl)ccc1NC(=O)c1cc2ccccn2n1,0%
Cc1ccc(CNC(=O)CCNC(=O)N2CCn3c2nc2ccccc23)cc1,-10%
CC1CCCCC12NC(=O)N(CC(=O)Nc1sccc1C(N)=O)C2=O (stereo not drawn),-2%
COc1cc2nc(SCC(=O)c3ccc(Br)cc3)n3nc(C)nc3c2cc1OC,-14%
Cc1c(Cl)c(-c2n[nH]c(=S)n2-c2ccc(F)cc2)nn1C,10%
CCOC(=O)c1[nH]c2ccccc2c1NC(=O)CCN1CCN(C(=O)OCC)CC1,-5%
CCN(CC)C1=N/C(=C\c2ccco2)C(=O)N1c1ccccc1,-6%
CCOc1ccc(CCNC(=O)c2nnc(Cc3ccc(F)cc3)o2)cc1OCC,-10%
CCOc1ccccc1CNC(=O)C1Cc2cc(S(=O)(=O)N3CCCCC3)ccc2N1C(C)=O (stereo not drawn),24%
C[C@H](CO)N1C[C@H](C)[C@@H](CN(C)S(=O)(=O)c2cccs2)Oc2c(NC(=O)c3ccncc3)cccc2C1=O,-15%
CCOc1cc(C2C(C(=O)OCC(C)C)=C(C)N=C3SCCC(=O)N32)ccc1OC(C)=O (stereo not drawn),-8%
Cc1ccc(N(CC(=O)NC2CCCC2)C(=O)CCCC(=O)Nc2ccccn2)cc1C,-4%
CCn1c(O)c(N=NC(=S)NCC2CCCO2)c2ccccc21 (stereo not drawn),5%
N#Cc1c(-c2ccccc2)cc(C2CC2)nc1SCC(=O)O,-13%
ONC(=Nc1ccccc1Cl)c1ccccc1Cl,-3%
COC(=O)c1ccc(-c2noc(CN(Cc3ccncc3)CC3CCCO3)n2)cc1 (stereo not drawn),-20%
COCC1CCN(c2nc3nonc3nc2N2CCSCC2)C1 (stereo not drawn),-22%
O=C(COC(=O)c1ccc(S(=O)(=O)C(F)F)cc1)Nc1cccnc1Cl,-2%
CCC(C)c1ccc(NC(=O)N2CCOCC2)cc1 (stereo not drawn),10%
COc1ccc(C(=O)OCC(=O)Nc2c(C)n(C)n(-c3ccccc3)c2=O)cc1OC,11%
COc1ccc(C2CC(c3cccc(Cl)c3)n3nc(N)nc3N2)cc1 (stereo not drawn),16%
CC(=O)N1CCC2(CC1)OC(=O)C(C)=C2C(=O)NCc1ccccc1Cl,5%
O=C(NCC(c1cccs1)S(=O)(=O)c1ccccc1)c1ccc(C(F)(F)F)cc1 (stereo not drawn),2%
COc1ccc(-n2c(=S)[nH]c3cc(C(=O)NCCCN4CCOCC4)ccc3c2=O)c(OC)c1,-5%
COc1ccc(CNCC(O)(c2ccccc2)c2ccc(Cl)cc2)cc1 (stereo not drawn),7%
O=C(N/N=C/C(Br)=C\c1ccccc1)c1cccs1,4%
COC(=O)c1cc2sc(C)cc2n1CC(=O)Nc1ccc(C)cc1Cl,-1%
COc1cccc(NC(=O)CN(C)C(=O)/C=C/c2cn(-c3ccccc3)nc2-c2ccc(C)cc2)c1,6%
N=c1c(S(=O)(=O)c2ccc(Br)cc2)cc2c(=O)n3ccccc3nc2n1C1CCCCC1,-11%
O=C(O)c1ccc(CSc2nnnn2-c2ccc(F)cc2)cc1,9%
Cc1ccc(C)c(Cn2c(=O)n(-c3ccc(F)cc3)c(=O)c3sc4ccccc4c32)c1,0%
O=C(CSc1nnc(COc2cccc3ccccc23)o1)N1c2ccccc2CCc2ccccc21,-13%
O=C(NCc1cccs1)C1CCC(=O)N(Cc2cccc(C(F)(F)F)c2)C1 (stereo not drawn),0%
Cc1ccc(-n2c(SCC(=O)NCc3ccco3)nc3c(sc4ccccc43)c2=O)cc1,-12%
CCn1c(SCc2nc(-c3ccc(Cl)cc3)no2)nnc1-c1ccco1,-3%
CCCS(=O)(=O)N1CCN(Cc2ccccc2[N+](=O)[O-])CC1,-15%
CCCNC(=O)CCc1c(C)nc2c(c(C)nn2-c2ccc(C)cc2)c1C,15%
Cn1cccc1C(=O)NCc1ccc(Cl)cc1,1%
COc1ccc(NC(=O)[C@@H](c2ccccc2)N2Cc3ccccc3C2=O)cc1OC,6%
COc1ccc(S(=O)(=O)N(CC(=O)N2CCOCC2)Cc2ccccc2)cc1C,2%
Cc1cc2ccccn2c1C(=O)c1ccncc1,2%
O=C1OC(Nc2cc(Br)cc3cccnc23)c2ccccc21 (stereo not drawn),-13%
Cc1cccc(NC(=O)CCCc2ccccc2)c1,-5%
Cc1ccc(Nc2nc(CSc3nnc(-c4ccncc4)n3C)cs2)cc1,-19%
C=C1CCN(C(CC(C)C)C(=O)N2CCOCC2)S(=O)(=O)c2ccccc21 (stereo not drawn),-6%
COc1ccc(CNS(=O)(=O)c2ccc(S(=O)(=O)N3CCCCC3)cc2)cc1,2%
Cc1cc2c(cc1S(=O)(=O)CCC(=O)NCCc1ccccc1)OCC(=O)N2,-4%&5%
Cn1c(CSCc2ccc(F)cc2)n[nH]c1=S,-3%
CC(=O)Nc1ccc2c(c1)c1ccccc1n2C(C)=O,?
O=C(NCc1ccccn1)Nc1ccc2c(c1)OCO2,-2%
COc1ccc(/C=N/NC(=O)Cn2cnc3ccccc3c2=O)cc1,-1%
CN(C)CCCNc1ccc(-c2n[nH]c(=O)c3ccccc23)cc1[N+](=O)[O-],-2%
CCOc1ccc(-c2cccc(NS(=O)(=O)c3ccccc3C(F)(F)F)c2)nn1,24%
COc1ccc(-c2nc(SC(C)C(=O)NC3CC3)n[nH]2)cc1 (stereo not drawn),-16%
CCc1cccc(CC)c1NC(=O)COC(=O)c1cccc(S(=O)(=O)N2CCc3ccccc3C2)c1,-1%
COC(=O)c1ccccc1NC(=O)c1sc(=S)n(C)c1N,6%

(cont.)
SMILES,VDR inh
O=C(O)c1cc(-c2ccccc2)n(-c2ccc(Cl)cc2)n1,6%
Cc1ccc(C(=O)OCc2nc(N)nc(Nc3ccccc3C)n2)cc1,11%
N#Cc1cccnc1N1CCC(C(N)=O)CC1,-12%
CN(C(=O)c1cccc(COc2ccc(Cl)cc2Cl)c1)c1ccccc1,-8%
CCC(=O)c1ccc(/C=C/c2nc3ccccc3n2C)o1,14%
CCOC(=O)N1CCN(C(=O)c2oc3ccc(S(=O)(=O)N(CC)CC)cc3c2C)CC1,-4%
Cn1c(=O)c2c(nc(CN3CCN(C(=O)c4ccco4)CC3)n2CCc2ccccc2)n(C)c1=O,-11%
Cc1ccc(CCNC(=O)CCCn2c(=O)c3ccccc3n(Cc3ccccc3C#N)c2=O)cc1,-12%
COC(=O)CN(c1nc(C)c(Br)c(OC)n1)S(=O)(=O)c1ccc(C)cc1,11%
CCc1ccc(NC(=O)Cn2c(=O)oc3cc(S(=O)(=O)N4CCCCCC4)ccc32)cc1,-2%
OC1CCCN(CC(O)COC(c2ccccc2)c2ccccc2)C1 (stereo not drawn),8%
COc1cc(C)ccc1OCC(=O)NCC1CCCO1 (stereo not drawn),-6%
O=C(Cn1nc(C(F)F)cc1C1CC1)N1CCCC1,-12%
COc1ccc(NC(=O)c2cc(S(=O)(=O)N3CCS(=O)(=O)CC3)ccc2Cl)cc1,-13%
COC(=O)c1ccc2nc(NC(=O)C(C)(C)C)sc2c1,1%
COc1ccc2[nH]c(C(=O)Nc3cccc(C)n3)cc2c1,14%
O=C(NNC(=O)c1cc2cc(OC(F)(F)F)ccc2[nH]1)c1cccc(C(F)(F)F)c1,-12%
O=C(CSc1ncnc2ccccc12)NC1CCS(=O)(=O)C1 (stereo not drawn),-8%
CCc1nnc(SCC(=O)NC2CCCCC2)nc1CC,-7%
O=C(N/N=C/c1ccc2ncccc2c1)c1ccco1,-14%
COc1ccc(Oc2nc3c(c(=O)n(C)c(=O)n3C)n2C)cc1,-23%
O=C(Nc1ccc(Cl)c(Cl)c1)N1CCSCC1,3%
CC(=O)Oc1ccc(C(=O)Nc2cccc(C(=O)NC(C)(C)C)c2)cc1,-22%
CC(C)=CCCC(C)CN1CCC(n2nccc2NC(=O)C2CCCC2)CC1 (stereo not drawn),-10%
Cc1ccccc1N1OC2C(=O)N(c3ccc(F)cc3)C(=O)C2C1c1ccccn1 (stereo not drawn),13%
CCN(CC)CCCn1c2c(c(SCC(=O)Nc3nccs3)nc1=O)CCC2,-3%
O=C(COc1ccccc1Cl)NC(=S)N1CCc2ccccc21,-5%
CC1CC2=C(CC1/C=N/NC(N)=S)C(C)(C)CCC2 (stereo not drawn),-12%
COc1ccc(CNC(=O)N2CCN(c3ccc(F)cc3)CC2)cc1,14%
CCOC(=O)C1CCN(CC(O)COCc2cccs2)CC1 (stereo not drawn),13%
Cc1ccc(OCC(=O)NCC(c2ccc(Cl)cc2)N2CCOCC2)cc1C (stereo not drawn),11%
C/C(CC(=O)Nc1cccc(Cl)c1C)=N\NC(=O)Cc1csc(N)n1,-5%
CCc1ccc(CN(C)C(=O)c2cc(COc3ccc(-n4cncn4)cc3)on2)cc1,-8%
Cc1ccc(C(c2sc3nc(C)nn3c2O)N2CCN(c3ccccc3)CC2)cc1 (stereo not drawn),-9%
Cc1c(N)cccc1Cl,20%&-2%
Cc1cc(Cl)ccc1NC(=S)NCCc1ccc(S(N)(=O)=O)cc1,-23%
COc1cc(C2NC(=O)N(C)C3=C2C(=O)N(c2cccc(Cl)c2)C3)ccc1O (stereo not drawn),-18%
CC(C)COc1ccc(Nc2ncnc3ccc(Br)cc23)cc1,3%
CC1=C(C(N)=O)C(c2ccc(Br)cc2)n2nc(CCCO)nc2N1 (stereo not drawn),42%[activator]
O=C(Cc1ccc(Br)cc1)Nc1ccc(S(=O)(=O)Nc2ncccn2)cc1,-23%
CC1C/C(=N/NC(=O)c2ccc(CSc3nc4ccccc4[nH]3)cc2)CC(C)(C)C1 (stereo not drawn),-16%
